# MgrA DNA FP – alters Staphylococcus aureus MgrA binding to DNA | fluorescence polarization | inhibition, %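 (about 10 µg/mL by stock and volumes)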 | 84,000 compounds, 0.13% hits | AID 602314;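 active = above 50% in either of two replicates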;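 note: 0% = protein plus DNA without compound and 100% = DNA alone without protein; higher means less MgrA bound to DNA so lower polarization; one replicate is shown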
# S aureus helic – S. aureus DNA helicase inhibition | purified S. aureus helicase, fluorescence unwinding assay; about half of the hits fall short of the stated cut | inhibition, %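 (tested at about 80 µM)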 | 120,000 compounds, 0.05% hits;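 active = both duplicates at 50% or more, or one of them with a favoured structure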;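 note: 0% = mean of negative control wells and 100% = mean of positive control wells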
# An asterisk follows results filed as active; x = not tested or not shown; & = joins results of further samples.
# Start of the data: the first 6 compounds, ahead of the listing:
mol | MgrA DNA FP | S aureus helic
CC1(C)C(Br)=C(Br)C(=O)C1(Br)Br | 10 | x
CN(C)C(=O)Oc1ccc2cc(-c3ccccc3)c(=O)oc2c1 | x | 13
C[N+]1(CC2COC(c3ccco3)O2)CCCCC1 (stereo not given) | -0.6 | 1
Cc1cc(N2CCNCC2)nc(C(C)C)n1 | 1.1 | 4
CCOC(=O)C1C2NC(=S)N[C@]1(C)Oc1ccccc12 (stereo not given in full) | 3.8 | 11
CCN(CC)c1nc2ccccc2c(=O)n1-c1ccccc1 | -1.0 | -9

# Results, previewed entries included:
mol | MgrA DNA FP | S aureus helic
CC1(C)C(Br)=C(Br)C(=O)C1(Br)Br | 10 | x
CN(C)C(=O)Oc1ccc2cc(-c3ccccc3)c(=O)oc2c1 | x | 13
C[N+]1(CC2COC(c3ccco3)O2)CCCCC1 (stereo not given) | -0.6 | 1
Cc1cc(N2CCNCC2)nc(C(C)C)n1 | 1.1 | 4
CCOC(=O)C1C2NC(=S)N[C@]1(C)Oc1ccccc12 (stereo not given in full) | 3.8 | 11
CCN(CC)c1nc2ccccc2c(=O)n1-c1ccccc1 | -1.0 | -9
N#CC(C#N)=Cc1sc2ccccc2c1Cl | -1.7 | 8
O=C(Nc1ccc(Cl)cc1)OC1CN2CCC1CC2 (stereo not given) | -0.5 | x
Cc1cccc(NC2=NCCCS2)c1 | -2.0 | x
O=C1C(Cl)=C(Cl)C(=O)c2ccccc21 | 23 | x
Cc1ccccc1NC1(C#N)CCCCC1 | x | 14
CCOC(=O)c1c(C)n(C2CCCCC2)c2ccc(O)cc12 | 0.0 | 5
c1nc(N2CCN3CCCC3C2)c2[nH]cnc2n1 (stereo not given) | 1.2 | 10
CN(C)C(=O)Oc1nnc(SCCS(=O)(=O)c2ccc(F)cc2)n1-c1ccccc1 | -0.2 | x
COC(=O)CC1=C(C(=O)OC)C2(C(=O)Nc3ccccc32)C(C#N)=C(N)O1 (stereo not given) | -2.7 | 12
O=C(NC(=O)c1ccccc1Cl)Nc1ccc2c(c1)S(=O)(=O)C=C2 | -1.4 | x
O=C(O)Cc1ccc2c(c1)OCO2 | x | -1
COc1ccccc1N1CCN(Cc2ccc(SC)cc2)CC1 | -5.5 | 12
Cc1cc(N2CCNCC2)nc(C)n1 | -2.5 | 0
CN(N)c1ccccc1 | x | -7

# Other records follow:
mol | MgrA DNA FP | S aureus helic
CO/C1=C\C(C)=C\[C@@H](C)[C@@H](O)[C@H](C)C/C(C)=C/C=C/[C@H](OC)[C@@H]([C@@H](C)[C@@H](O)[C@H](C)[C@H]2C[C@@H](O)[C@H](C)[C@@H](C(C)C)O2)OC1=O | -0.9 | x
c1ccc(N=Nc2ccccc2)cc1 | -0.4 | x
Cc1ccc(-c2nn(-c3ccccc3)cc2C=C2C(=O)NC(=O)NC2=O)o1 | 17 | -22
N#CCCn1cc(C(=O)Nc2ccccc2Cl)c(-c2ccc(F)cc2)n1 | 0.9 | 3
O=c1ccc2cc(O[C@@H]3O[C@H](CO)[C@@H](O)[C@H](O)[C@H]3O)c(O)cc2o1 | -0.9 | x
COc1cccc(CNCCc2c[nH]c3ccccc23)c1O | x | 1
COc1ccccc1C(=O)OCC1CCCN2CCCCC12 (stereo not given) | -0.5 | 1
CC(C)C(=O)Nc1ccc(N2CCN(C)CC2)cc1 | 2.1 | x
C=CC(=O)N1CC2CC(C1)c1cccc(=O)n1C2 (stereo not given) | 0.5 | 1
CCN1CCC2(CC1)NC(CO)(CO)CO2 | x | 5
COc1ccc(Cc2c(O)[nH]c(=S)[nH]c2=O)cc1 | 7.8 | 7
C=Cn1ccnc1P(O)(=S)c1nc(C)c(CCOC(C)=O)s1 (stereo not given) | x | -3
OC12CCCCC1C(c1ccc(F)cc1)NCC2 (stereo not given) | 1.5 | -8
N#CC1=C(N)Oc2c(c(=O)oc3ccccc23)C1Cc1ccccc1 (stereo not given) | 17 | -1
Cc1ccc(-c2nn(CCC#N)cc2C(=O)O)cc1C | -0.4 | 20
CC1CN(Cc2ccccc2)CCN1 (stereo not given) | -4.6 | x
O=c1[nH]c(=O)n(C2CCCCC2)c(O)c1C=Nc1ccc(N2CCOCC2)cc1 | 4.0 | 23
CCOc1ccc(C=C(C#N)C#N)cc1 | -0.7 | x
CCN1CCN(Cc2csc3c2CCCC3)CC1 | x | -4
O=C1OCCN1/N=C/c1ccc([N+](=O)[O-])o1 | 0.0 | x

# Going on with the list:
mol | MgrA DNA FP | S aureus helic
O=C(c1cc2c(=O)[nH]c3ccccc3c2s1)N1CCC2(CC1)OCCO2 | x | -25
CC12CN3CC(C)(CN(C1)P3(=O)Oc1ccccc1)C2=O (stereo not given) | -0.2 | x
COC(=O)CC1=C(C(=O)OC)C2(C(=O)Nc3ccc(Br)cc32)C(C(=O)OC)=C(N)O1 (stereo not given) | x | 30
COc1ccc(CCN(C)CC2=CCC3CC2C3(C)C)cc1OC (stereo not given) | -0.3 | 8
CCCCN=Cc1c(O)[nH]c(=O)[nH]c1=O | x | -29
Cn1c(O)c(N=Nc2ccc(S(=O)(=O)N3CCOCC3)cc2)c(=O)n(C)c1=O | x | -9
CN1C2CCC1/C(=C\c1cccnc1)C(=O)/C2=C/c1cccnc1 | x | 34
O=C(c1cccs1)C1CN2CCC1CC2 (stereo not given) | x | 17
c1ccc2cc(CN3CCN(c4cccc5[nH]ccc45)CC3)ccc2c1 | -0.8 | x
CC[N+]1(C)CCCC(OC(=O)C(O)(c2ccccc2)c2ccccc2)C1 (stereo not given) | 1.4&2.5 | x
Cn1cccc1/C=C1/C(=O)NC(=O)N(Cc2ccccc2)C1=O | 9.4 | 7
CCO/C=N/c1c(C(=O)OCC)c2nc3ccccc3nc2n1Cc1ccccc1 | x | -20
CCOC(=O)CC1NC2CCCCC2NC1=O (stereo not given) | x | -20
Cc1ccc(P(=S)(c2ccc(C)o2)N2CCOCC2)o1 | x | -3
CC(c1ccccc1)N1CCNCC1 (stereo not given) | -2.1 | -2
CCN(CC)P(=S)(c1ccc(/C=N/NC(N)=O)s1)N(CC)CC | x | -3
CCOc1ccc(NC2=NC(C)CS2)cc1 (stereo not given) | 0.1 | -1
O=C(c1ccc(Cl)c(Cl)c1)C12CN3CN(CN(C3)C1)C2 | x | 26
Cn1cc(C=C(C#N)C#N)c2ccccc21 | 26 | -59
CC1(C)C(C(=O)Nc2ccccc2C#N)C1(C)C | 0.8 | 1

# Next part:
mol | MgrA DNA FP | S aureus helic
CCN1C(=O)C2(Sc3ccccc3C2=O)C(=O)N(CC)C1=S | x | 10
OC1(c2ccc(F)cc2)CC2CCC(C1)N2Cc1nnnn1C1CCCCC1 (stereo not given) | 18 | 0
Cc1ccc(C(C)C)cc1OP1(=O)COc2ccccc2OC1 | -0.1 | 7
COc1ccc2[nH]cc(CN(C)C)c2c1 | x | -9
CC1CC2(O)c3no[n+]([O-])c3CCC2N1O (stereo not given) | -0.6 | 6
O=C(Cn1cnc([N+](=O)[O-])n1)Nc1ccc(Cl)cc1C(=O)c1ccccc1 | -0.8 | x
CCOC(=O)CN1C(=O)C2(C(C(=O)OCC)=C(N)OC3=C2C(=O)CC(C)(C)C3)c2ccccc21 (stereo not given) | 2.1 | 3
O=C1CCN(C(=O)c2ccccc2)CC1 | -3.8 | x
c1ccc2c(c1)CCc1c-2[nH]c2ccccc12 | -0.2 | x
COc1cc(C(=O)CN2CCOCC2)cc(OC)c1OC | x | 3
O=C1NC(=O)C(=Cc2ccc(Sc3ccc(Cl)cc3)o2)C(=O)N1 | x | 11
COC(=O)c1ccccc1N=Cc1c(O)[nH]c(=S)[nH]c1=O | 4.6 | 12
O=C(c1cc2c(s1)CCCCCC2)N1CCC2(CC1)OCCO2 | 1.1 | -2
CCc1ccc(CN2CCN(C(=O)Cc3ccccc3)CC2)cc1 | x | 2
CCCCC/C=C\C=C\[C@H](CCCCCCCC(=O)O)OO | -0.3 | x
O=C(COc1ccc(Cl)cc1Cl)OCC1CCCN2CCCCC12 (stereo not given) | -1.1 | 0
Cc1ccc2c(c1)C1CN(C)CCC1N2C(=O)Nc1cccc(C(F)(F)F)c1 (stereo not given) | x | 19
Cn1c(C(F)(F)F)nn(CN2CC=C(c3ccccc3)CC2)c1=S | x | -4
O=C1NC(=O)N(Cc2ccccc2)C(=O)/C1=C\N1CCCc2ccccc21 | 2.4 | 5
N#CC(C#N)=Cc1cccn1-c1ccc(Cl)cc1 | x | -21

# Remaining list, next part
mol | MgrA DNA FP | S aureus helic
Cc1cc(N)n(C2CCN(C)CC2)n1 | -1.8 | 19
CC1CN=C(Nc2ccc(F)c(Cl)c2)S1 (stereo not given) | 0.7 | x
CC(C)NCc1ccc2c(c1)OCO2 | -4.4 | 3
CC(=O)O[C@]1(C)C(=O)OC/C2=C/CN(C)CCC(OC(=O)[C@@](O)(C(C)O)C[C@@H]1C)C2=O (stereo not given in full) | x | -7
CCCn1c(C(=O)c2ccc(OC)cc2)nc2ccccc21 | -1.4 | 2
CC1(C)C2CCC1(C)C(N1CCNCC1)C2 (stereo not given) | -2.4 | x
O=c1[nH]c2ccccc2n1CCCN1CCC(n2c(=O)[nH]c3cc(Cl)ccc32)CC1 | -0.1 | x
CSC1=NN1c1cc(C)nc(N)n1 | -0.2 | 10
CCOC(=O)CC1=C(C(=O)OCC)C2(C(=O)N(C)c3ccccc32)C(C#N)=C(N)O1 (stereo not given) | 0.7 | 3
CC(C)N1CCN(Cc2ccc(F)cc2)CC1 | -0.9 | -12
CC(=O)OC1(c2ccc(C)cc2)CN2CCC1c1ccccc12 (stereo not given) | -4.0 | -9
O=C(CN1CCCC1=O)NCCc1ccccc1 | 1.3 | -2
CC(C)(C)c1c(O)[nH]c(=S)[nH]c1=O | 4.6 | 0
COc1ccc(C)cc1CCN | x | 11
CN(C)c1ccc(P(=S)(N(C)C)N(C)C)cc1 | x | 17
CC1CN=C(Nc2cccc(C(F)(F)F)c2)S1 (stereo not given) | 4.0 | x
O=C(NC1CN2CCC1CC2)c1cccc(Cl)c1 (stereo not given) | 0.7 | x
O=c1ccc(C(F)(F)Cl)c[nH]1 | 2.0 | 10
O=C(NCCOC(=O)C(Cl)(Cl)Cl)C(Cl)(Cl)Cl | 0.3 | x
CC(C)(C)c1cc(C=C(C#N)C#N)cc(C(C)(C)C)c1O | -0.7 | x

# Following part
mol | MgrA DNA FP | S aureus helic
Clc1cccc(NC2=NCCS2)c1Cl | 0.0 | x
Cc1cc(C(=O)O)c(C)n1C1CC1 | x | -8
CCN(CC)P1(=S)N(c2ccccc2)N=C2C=C(C)c3ccccc3N21 (stereo not given) | x | -12
Cc1ccc(NC2=NCCS2)c(C)c1 | x | 5
C=C1CC23C[C@@H]4CN5C[C@]6(C)C[C@H](OC(C)=O)C[C@@]7(C2[C@H](O)[C@@H]1C(O)C3(O)C57)C46 (stereo not given in full) | x | 9
O=C1C2CN3CCN(C2)CC1(c1ccccc1)C3 | x | -8
Cc1ccc(CS(=O)(=O)CCC(=O)N2CCC3(CC2)OCCO3)cc1 | x | 8
Cc1ccc(S(=O)(=O)N2CCCCC2c2cccnc2)cc1 (stereo not given) | -2.5 | x
CCOc1ccc(CCN)cc1OCC | 1.9 | -9
NCCc1nc2ccc(Cl)cc2[nH]1 | -6.3 | 6
Cc1cccc(NC(=O)OC2CN3CCC2CC3)c1 (stereo not given) | 0.7 | x
CC1=C2CCC3C(CC[C@]4(C)C(=O)CCC34)[C@@]2(C)CCC1=O (stereo not given in full) | 3.5 | x
COCC1=C(C(=O)OC)C2(C(=O)Nc3ccccc32)C(C(=O)OCc2ccccc2)=C(N)O1 (stereo not given) | -0.6 | x
CN(C)C(=O)C(OC(=O)c1cn(C)c2ccccc12)c1ccccc1 (stereo not given) | x | 18
CSc1nc2cccc(F)c2c(=O)n1-c1ccc(C)c(C)c1 | 1.9 | x
CC1=C(C(=O)OCc2ccccc2)C2(C(=O)Nc3ccccc32)C(C(=O)OC(C)C)=C(N)O1 (stereo not given) | 0.2 | x
Cn1cc(C(=O)Cc2ccccc2)c2ccccc21 | x | 8
Cc1ccc2[nH]cc(CC(C)N)c2c1 (stereo not given) | 2.2 | 15
COc1cc2c(cc1O)CC1c3c(cc(O)c(OC)c3-2)CCN1C (stereo not given) | -0.8 | x
CCC(=O)Nc1ccccc1N1CCN(C)CC1 | 1.9 | 8

# Next section:
mol | MgrA DNA FP | S aureus helic
O=c1[nH]c(=O)n(-c2ccccc2F)c(O)c1C=NCCC1=CCCCC1 | 3.1 | 10
CC(C)(C)CC(=O)NC1CCSC1=O (stereo not given) | x | 30
CCCCn1c(N)c(C(=O)OC)c2nc3ccccc3nc21 | x | 16
CC12CC(c3ccccc3O1)C(C(=O)O)C(=O)N2CCc1ccc(S(N)(=O)=O)cc1 (stereo not given) | -1.9 | 2
CC(C)=CCC12CN3CCN(CC(C3)C1O)C2 (stereo not given) | x | 10
NCC(CC(=O)O)C1CCCCC1 (stereo not given) | x | -5
CCCC1=C(C(=O)OCC)C2(C(=O)Nc3ccccc32)C(C(=O)OC(C)C)=C(N)O1 (stereo not given) | 2.6 | x
NCCc1c[nH]c2ccc(F)cc12 | x | 11
C=C[C@H]1CN2CC[C@H]1C[C@@H]2[C@@H](OC(=O)OCC)c1ccnc2ccc(OC)cc12 | -0.6 | x
O=c1cccc2n1CC1CC2CN(c2nc(Cl)nc(Cl)n2)C1 (stereo not given) | -0.8 | 8
CCOC(=O)c1c(C)n(C2CC2)c2ccc(OC)cc12 | -4.5 | x
O=C(Nc1ccc(Cl)cc1C(=O)c1ccccc1)c1cc2cc([N+](=O)[O-])ccc2s1 | 0.5 | x
O=C(CN1CCC(N2CCCCC2)CC1)N1CCC2(CC1)OCCO2 | 11 | 1
Cc1cccc(-c2nc(CN3C(=O)C(C)N=C(c4ccccc4F)c4cc(Cl)ccc43)c(C)o2)c1 (stereo not given) | 0.6 | 5
NC(CC(=O)O)C1CCCCC1 (stereo not given) | -0.8 | x
CCN(CC)Cc1nc2ccccc2c(=O)n1-c1ccc(F)cc1 | 0.3 | 30

# Bioassay records deposited in PubChem BioAssay by ICCB-Longwood Screening Facility, Harvard Medical School.

# The list is partial. The share of hits here may be higher or lower than overall.
